# Screens: PubChem, ICCB-Longwood Screening Facility, Harvard Medical School
# PV pol inh = poliovirus RNA polymerase inhibition | poliovirus polymerase elongation, fluorescence polarization; stronger effect = lower value | actives 0.66% (n = 150,000) | % elongation, % (compound at 16.7 µg/mL) | P03300; in the data active = % elongation below about 90%; note: some results filed as inactive read as strong as hits
# Target sequence (P03300 1749-2209 limits assumed): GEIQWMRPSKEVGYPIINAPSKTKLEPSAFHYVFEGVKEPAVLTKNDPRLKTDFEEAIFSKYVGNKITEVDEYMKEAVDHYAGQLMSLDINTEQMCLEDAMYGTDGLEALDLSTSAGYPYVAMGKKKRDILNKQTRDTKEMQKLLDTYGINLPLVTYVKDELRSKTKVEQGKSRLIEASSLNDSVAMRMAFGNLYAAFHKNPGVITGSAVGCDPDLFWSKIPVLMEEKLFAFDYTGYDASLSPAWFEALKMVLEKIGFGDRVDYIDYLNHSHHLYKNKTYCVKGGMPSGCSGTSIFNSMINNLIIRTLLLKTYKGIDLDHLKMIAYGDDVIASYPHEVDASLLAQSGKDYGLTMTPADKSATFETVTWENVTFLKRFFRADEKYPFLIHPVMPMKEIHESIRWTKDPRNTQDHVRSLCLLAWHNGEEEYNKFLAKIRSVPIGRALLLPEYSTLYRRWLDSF
# PV pol inh intensity = second read-out of PV pol inh, no call of its own (marks repeat the call); % elongation; measured here: total intensity read-out; formula for this scale not given here;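 total fluorescence in place of polarization; lower means less elongation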
# Active calls of the source: *. Only part of the results is shown, so the mix of outcomes need not match the whole.
# The opening 6 compounds, to show the layout:
# Order of results: PV pol inh, PV pol inh intensity
CCCCn1c(=N)c(S(=O)(=O)c2ccc(C)cc2)cc2c(=O)n3cc(C)ccc3nc21
  106.0, 103.0
Cc1ccc(C)c(N2CCN(CCCNC(=O)c3nnc(Cc4ccc(F)cc4Cl)o3)CC2)c1
  108.0, 112.0
COc1ccc(S(=O)(=O)c2c(O)c3ccc(C(=O)NCc4ccccc4)cc3[nH]c2=O)cc1
  96.0, 102.0
COc1ccc(C)cc1NC(=O)C1CCN(S(=O)(=O)c2ccc3c(c2)CCCN3C(C)=O)CC1
  108.0, 110.0
COc1ccc2c(c1)c1c(c(=O)n(Cc3ccccc3)c(=O)n1Cc1cccc(Cl)c1)n2C
  110.0, 114.0
Cc1c(Cl)cccc1NC(=O)Cn1nnc(-c2nc(-c3ccccc3)no2)c1N
  113.0, 117.0

# The whole of this part, from the first entry:
# Order of results: PV pol inh, PV pol inh intensity
CCCCn1c(=N)c(S(=O)(=O)c2ccc(C)cc2)cc2c(=O)n3cc(C)ccc3nc21
  106.0, 103.0
Cc1ccc(C)c(N2CCN(CCCNC(=O)c3nnc(Cc4ccc(F)cc4Cl)o3)CC2)c1
  108.0, 112.0
COc1ccc(S(=O)(=O)c2c(O)c3ccc(C(=O)NCc4ccccc4)cc3[nH]c2=O)cc1
  96.0, 102.0
COc1ccc(C)cc1NC(=O)C1CCN(S(=O)(=O)c2ccc3c(c2)CCCN3C(C)=O)CC1
  108.0, 110.0
COc1ccc2c(c1)c1c(c(=O)n(Cc3ccccc3)c(=O)n1Cc1cccc(Cl)c1)n2C
  110.0, 114.0
Cc1c(Cl)cccc1NC(=O)Cn1nnc(-c2nc(-c3ccccc3)no2)c1N
  113.0, 117.0
Cc1cccc(NC(=O)CSc2nc3ccccc3nc2N2CCC(C)CC2)c1
  109.0, 112.0
COc1ccc(S(=O)(=O)NCc2ccc3c(c2)CCN3C(=O)c2ccc(C)cc2)cc1Cl
  108.0, 96.0
Cc1ccccc1NC(=O)Cn1c(=O)n(CCC(=O)NCc2ccc3c(c2)OCO3)c(=O)c2sccc21
  107.0, 111.0
CCCNC(=O)Cn1nc(-c2ccc(C)cc2)c2cnc3ccc(CC)cc3c21
  98.0, 106.0
Cc1ccccc1Nc1c(-c2cc(Br)ccc2F)nc2ccccn12
  99.0, 101.0
COc1ccc(S(=O)(=O)NC2(C(F)(F)F)NC(=O)N(CCc3ccc(OC)c(OC)c3)C2=O)cc1 (stereo unspecified)
  106.0, 99.0
Cc1c(NC(=O)c2cc(-c3ccc(O)cc3)on2)c(=O)n(-c2ccccc2)n1C
  98.0, 97.0
O=C(CSc1nnc(-c2ccc(Cl)cc2)c(-c2ccc(Cl)cc2)n1)NC1CCCC1
  109.0, 112.0
COc1ccc(OC)c(S(=O)(=O)Nc2cccc(-c3ccc(N4CCCCCC4)nn3)c2)c1
  101.0, 107.0

# As entered above:
# `Cc1c(NC(=O)c2cc(-c3ccc(O)cc3)on2)c(=O)n(-c2ccccc2)n1C` in PV pol inh = 98.0
# `Cc1ccccc1NC(=O)Cn1c(=O)n(CCC(=O)NCc2ccc3c(c2)OCO3)c(=O)c2sccc21` in PV pol inh intensity = 111.0
# `COc1ccc(OC)c(S(=O)(=O)Nc2cccc(-c3ccc(N4CCCCCC4)nn3)c2)c1` in PV pol inh intensity = 107.0

# More structures follow.
# Order of results: PV pol inh, PV pol inh intensity
Cc1c(-c2cccc(NC(=O)Nc3ccccc3)c2)nc2ncccn12
  115.0, 117.0
CCOC(=O)C1CCCN(C(=O)c2ccc3c(c2)N(Cc2ccccc2F)C(=O)c2ccccc2S3=O)C1 (stereo unspecified)
  109.0, 107.0
COc1ccccc1Nc1ncnc2scc(-c3ccc(F)cc3)c12
  97.0, 104.0
Cc1cccc(/C=C(\C#N)c2nc3ccccc3c(=O)[nH]2)c1
  104.0, 107.0
Cc1oc(C)c2c(=O)cc(-c3ccc4c(c3)OCO4)cc(OC(=O)c3ccccc3Br)c12
  109.0, 109.0
CC(C)Cn1cc(NC(=O)NCc2cccc(Cl)c2)c2ccccc2c1=O
  58.0*, 64.0*
Cc1nc(-c2ccc(S(=O)(=O)Nc3cc(Cl)ccc3C)cc2)co1
  115.0, 112.0
COc1ccc(C)cc1NC(=O)C(NS(=O)(=O)c1cccs1)c1ccccc1 (stereo unspecified)
  103.0, 107.0
CCN(C(=O)c1cc(S(=O)(=O)N2CCOCC2)cn1C)c1ccc(OC)cc1
  109.0, 111.0
CCS(=O)(=O)c1cccc(C(=O)N2CCN(c3nc4c(C)ccc(Cl)c4s3)CC2)c1
  105.0, 103.0
CCCN1C(=O)C2(c3ccccc31)c1c(oc3ccccc3c1=O)C(=O)N2CCCOC(C)C (stereo unspecified)
  105.0, 110.0
COc1cccc(CNC(=O)Cn2c(SCC(=O)Nc3ccc(F)cc3)nc3ccccc32)c1
  112.0, 103.0
CCOc1ccc(S(=O)(=O)Nc2ccc3c(c2)CCCN3C(=O)c2cccs2)cc1
  112.0, 110.0
COc1cccc(N2CCN(C(=O)Cn3ncc4c(=O)oc5ccccc5c43)CC2)c1
  110.0, 108.0
Cc1ccc(Cl)cc1N1CCN(C(=O)C2CCN(S(=O)(=O)c3ccc4c(c3)oc(=O)n4C)CC2)CC1
  104.0, 104.0
O=C(Nc1ccc2oc(-c3ccc(O)c(Br)c3)nc2c1)c1cc2ccccc2o1
  114.0, 117.0
CC1=C(C(=O)OC2CCCC2)C(c2cccc(Cl)c2Cl)CC(=O)N1 (stereo unspecified)
  108.0, 114.0
CC1=C(C(=O)Nc2ccccc2Cl)C(c2cccs2)n2ncnc2N1 (stereo unspecified)
  102.0, 107.0
COc1ccc(CCN2C(=O)N(c3cccc(OC)c3)C(=O)C2CC(=O)Nc2ccccc2)cc1 (stereo unspecified)
  109.0, 107.0
CCOC(=O)c1ccc(NC(=O)C(Cc2ccccc2)N2Cc3ccccc3C2=O)cc1 (stereo unspecified)
  102.0, 104.0
Cc1ccc(Cn2c(C(=O)O)c(CNCCc3cccs3)c3ccc(C)cc32)cc1
  112.0, 114.0
Cc1ccc(Cl)cc1N1CCN(C(=O)c2ccc3c(c2)N(Cc2ccccc2)CCS3)CC1
  105.0, 110.0
Cc1ccc(NC(=O)Cn2cnc3c2c(=O)n(C)c(=O)n3C)cc1C
  107.0, 102.0
CCOc1cc(-c2nnc(SCC(=O)NC3CCCC3)nc2-c2ccc(OC)c(OCC)c2)ccc1OC
  109.0, 112.0
COc1ccc(NC(=O)c2oc3ccccc3c2NC(=O)c2cc3ccccc3o2)c(OC)c1
  100.0, 105.0
Cc1ccc(S(=O)(=O)NCCc2csc(-c3cccc(F)c3)n2)cc1
  113.0, 112.0
CCOC(=O)c1ccc(CN(Cc2ccc(F)cc2)S(=O)(=O)c2ccc(F)c(C(=O)Nc3cc(Cl)ccc3OC)c2)cc1
  114.0, 114.0
CC(C)OCCCNC(=O)Cc1ccc(NC(=O)N2CCCCc3ccccc32)cc1
  102.0, 106.0
Cc1ccc2c(=O)cc(C(=O)N(Cc3ccc(C(C)(C)C)cc3)C3CCS(=O)(=O)C3)oc2c1 (stereo unspecified)
  112.0, 113.0
CCOc1cc(/C=C(\C#N)C(=O)Nc2ccc(OC)cc2)ccc1OCc1cc(=O)n2nc(CC)sc2n1
  102.0, 106.0
O=C(CSc1cn(CCNC(=O)c2cccc(C(F)(F)F)c2)c2ccccc12)Nc1ccc2c(c1)OCCO2
  106.0, 110.0
CC(C)(C)CC(=O)NCC(c1ccc2c(c1)OCO2)N1CCOCC1 (stereo unspecified)
  112.0, 105.0
CCc1ccc(NC(=O)CN2C(=O)C3CCCN3c3ccc(S(=O)(=O)N(CC)CC)cc32)cc1 (stereo unspecified)
  109.0, 118.0
COc1ccccc1NC(=O)CN1C(=O)c2cccc3cccc1c23
  107.0, 112.0
O=c1nc2c(-c3ccc(F)cc3Cl)n[nH]n2c2ccccc12
  105.0, 106.0
Cc1ccc(CNC(=O)c2sc3nc(C)cc(C)c3c2-n2cccc2)cc1
  101.0, 111.0
CCN(CC)S(=O)(=O)c1ccc(NC(=O)CN(c2ccccc2)S(=O)(=O)N(C)C)cc1
  106.0, 107.0
CCSc1nc2n(n1)C(c1ccc(CC)cc1)C(C(=O)Nc1ccccc1OC)=C(C)N2 (stereo unspecified)
  108.0, 111.0
COc1cccc(C2c3c(-c4ccccc4O)n[nH]c3C(=O)N2CCc2ccc(OC)c(OC)c2)c1 (stereo unspecified)
  105.0, 110.0
CCOc1ccc2nc(N(Cc3cccnc3)C(C)=O)sc2c1
  105.0, 100.0
CCCOc1ccc(Oc2nc(NC)nc(N3CCOCC3)n2)nn1
  102.0, 95.0
COc1cccc(Cn2c(-c3nonc3NC(C)=O)nc3ccccc32)c1
  109.0, 120.0
CCOc1ccc(C2CC(=O)N(c3cccc(F)c3)C3=C2C(=O)OC3)cc1 (stereo unspecified)
  107.0, 104.0
CCOc1ccc(-c2nc(C(N)=O)c3c(n2)n(-c2ccc4c(c2)OCO4)c(=O)n3CC)cc1
  109.0, 109.0
Cc1cn2c(=O)cc(COc3ccc(NC(=O)c4ccc(C(C)(C)C)cc4)cc3)nc2s1
  101.0, 104.0
Cc1ccc(CNC(=O)c2ccc(N3CCCC3)c(NC(=O)Nc3ccc(C)cc3)c2)cc1
  109.0, 114.0
Cc1ccc(CNS(=O)(=O)c2ccc3[nH]c4c(c3c2)CCCC4)cc1
  109.0, 109.0
CCc1ccc(C2=CC(c3cccc(C)c3)n3c(nc4ccccc43)N2)cc1 (stereo unspecified)
  105.0, 116.0
CC(=O)c1cccc(NCc2ccccc2-c2nnc(-c3ccccc3)o2)c1
  101.0, 102.0
COc1ccc(N(C)C(=O)CCS(=O)(=O)c2cccc3nsnc23)cc1
  105.0, 104.0
CCCCOC(=O)c1c(N)n(-c2ccc(OC)cc2OC)c2nc3ccccc3nc12
  108.0, 112.0
Cc1ccc(OCc2cc(=O)n3ccsc3n2)c(NC(=O)c2ccco2)c1
  105.0, 107.0
CCc1ccccc1N(CC)C(=O)C1CCN(c2ncnc3c2nc2n3CCCCC2)CC1
  111.0, 114.0
COc1cc(-c2nnc(SCC(=O)Oc3ccccc3)o2)cc(OC)c1OC
  97.0, 101.0
COc1ccc(C(CNC(=O)c2ccc(C)cc2)N2CCOCC2)cc1 (stereo unspecified)
  112.0, 110.0
COc1ccc(N2CCN(C(=O)c3cc4c(-c5ccccc5F)nn(C)c4s3)CC2)cc1
  104.0, 108.0
CC(C)N(Cc1ccccc1)C(=O)CN1C(=O)COc2ccc(S(=O)(=O)N3CCCCCC3)cc21
  116.0, 119.0
CCc1ccccc1Nc1cc(C(=O)NCc2ccc(C)cc2)c2ccccc2n1
  111.0, 112.0
CCOc1ccccc1NC(=O)C(NS(=O)(=O)c1cccc2nsnc12)c1ccccc1 (stereo unspecified)
  98.0, 97.0
O=C(C1COc2ccccc2O1)N1CCN(c2nc3ccc(F)cc3s2)CC1 (stereo unspecified)
  99.0, 101.0

# Retrieved by compound from above, 2 records:
# Order of results: PV pol inh, PV pol inh intensity
CCc1ccccc1Nc1cc(C(=O)NCc2ccc(C)cc2)c2ccccc2n1
  111.0, 112.0
Cc1ccc(CNS(=O)(=O)c2ccc3[nH]c4c(c3c2)CCCC4)cc1
  109.0, 109.0

# Further structures follow:
# Order of results: PV pol inh, PV pol inh intensity
Cc1cc(C(=O)NCc2ccccc2C)c2c(C)nn(-c3cccc(F)c3)c2n1
  107.0, 112.0
CCOC(=O)c1c(NC(=O)c2cc(CC(C)C)on2)sc(C(C)=O)c1C
  81.0*, 82.0*
Cc1ccc(CNC(=O)c2ccccc2NC(=O)c2nsc3ccccc23)cc1
  108.0, 110.0
Cc1ccc2c(c1)c1c(c(=O)n(-c3ccccc3)c(=O)n1Cc1ccccc1C)n2C
  107.0, 111.0
Cc1nc2nc(SCC(=O)Nc3cccc(Cl)c3)nn2c(C)c1Cc1ccccc1
  109.0, 110.0
O=C(Nc1cccc(Cl)c1)c1cc(-c2ccc3c(c2)OCO3)on1
  109.0, 112.0
Cc1cc(Nc2cccc(C(F)(F)F)c2)nc2ccc(NC(=O)c3cccnc3)cc12
  107.0, 99.0
Cc1ccc2nc(CN3CCN(S(=O)(=O)c4ccc(C)c(C)c4)CC3)oc2c1
  105.0, 101.0
COC(=O)C1CCN(C(c2ccccc2Cl)c2sc3nc(-c4ccco4)nn3c2O)CC1 (stereo unspecified)
  107.0, 106.0
COc1ccc(-c2nc3ccccc3o2)cc1NC(=O)c1ccc(N2CCC(C)CC2)c([N+](=O)[O-])c1
  105.0, 109.0
CCOc1ccc(NC(=O)C(Cc2ccccc2)NS(=O)(=O)c2ccc3c(c2)oc(=O)n3C)cc1 (stereo unspecified)
  104.0, 103.0
COc1cc(NS(=O)(=O)c2ccc3c(c2)CCCN3C(C)=O)cc(OC)c1OC
  109.0, 115.0
CCN1CCN(C(c2cccc(F)c2)c2c(O)cc(C)n(Cc3ccco3)c2=O)CC1 (stereo unspecified)
  100.0, 104.0
CCN(Cc1ccccc1)Cc1c(O)ccc2oc(C)c(C(=O)Nc3ccc(C)cc3C)c12
  105.0, 110.0
NC(=O)CSc1oc(-c2ccco2)nc1S(=O)(=O)c1ccc(Br)cc1
  100.0, 104.0
CNC(=O)c1c(NC(=O)c2nc(SCc3ccc(C)cc3)ncc2Cl)sc2c1CCCC2
  108.0, 111.0
CCOC(=O)c1c(C)[nH]c(C)c1S(=O)(=O)N1CCCC(C(=O)NCc2cccc(C)c2)C1 (stereo unspecified)
  111.0, 115.0
Cc1ccc(C2C=C(c3ccc(F)cc3)Nc3nc(CCCO)nn32)cc1 (stereo unspecified)
  101.0, 111.0
Cc1cccc(NC(=O)c2ccc(F)c(S(=O)(=O)NCc3ccc4c(c3)OCO4)c2)c1
  113.0, 116.0
Cc1cccc(N2CCN(C(=O)Cn3cnc4sc(C)c(S(=O)(=O)N5CCN(c6ncccn6)CC5)c4c3=O)CC2C)c1 (stereo unspecified)
  108.0, 112.0
CCOc1ccccc1Nc1ncnc2c1c(-c1ccccc1)cn2-c1ccc(OC)cc1
  107.0, 99.0
Cc1noc(-c2ccc(-c3noc(-c4ccc(C(F)(F)F)cc4)n3)cc2)n1
  104.0, 99.0
COc1cc(Cl)c(S(=O)(=O)NCCc2c(C)[nH]c3c(C)cccc23)cc1Cl
  106.0, 106.0
COc1ccc(C(=O)CCC(=O)Nc2cc(C)ccc2C)cc1
  108.0, 114.0
